Bioassay records as filed in PubChem BioAssay.
Vaccinia stage: Vaccinia orthopox stage-specific inhibition | AID 1053133 | Vaccinia-infected cells, mCherry/Venus stage reporter fluorescence; active compounds read low; some inactives read as strong as hits | actives 0.01% (n = 89,000) | activity change (mCherry), % (concentration not given with the values);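 active = mCherry past -33% and 40 or more points under the early reporter, replicates agreeing; inconclusive = past -33% without that gap or agreement; tested in A549 cells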;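 also: scaled between vehicle wells and reference inhibitor wells; 23 nL library stock went into each well; one replicate is shown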
Vaccinia stage Venus: recorded beside Vaccinia stage, whose call it bears; activity change (Venus), %; measured here: Venus reporter, other viral stage;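 negative = less Venus signal; first of two replicates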
Starred values were filed as active, the others as inactive; ? = inconclusive; nt = no result given. An excerpt; the hit share may differ from the screen's.

SMILES	Vaccinia stage	Vaccinia stage Venus
CO[C@H]1CN(C)C(=O)c2ccc(NC(=O)C3CC3)cc2OC[C@H](C)N(Cc2ccccc2)C[C@@H]1C	13	13
CN1c2ccc(-c3ccc(C#N)cc3)cc2[C@H]2[C@H](CCN2S(=O)(=O)c2cccc(F)c2)[C@H]1CO	?	nt
COc1cccc(NC(=O)C[C@@H]2CC[C@H]3[C@H](COc4ccc(NC(=O)C5CCC5)cc4C(=O)N3C)O2)c1	11	6
C[C@H](CO)N1C[C@H](C)[C@H](CN(C)Cc2ccc3c(c2)OCO3)Oc2c(NC(=O)c3nc4ccccc4s3)cccc2C1=O	-13	-9
COc1cccc(NC(=O)N[C@@H]2C=C[C@@H](CC(=O)N3CCCCC3)O[C@@H]2CO)c1	-10	4
CCC(=O)N1CC[C@@H]2[C@H]1c1cc(-c3ccc(OC)cc3)ccc1N(C)[C@H]2CO	?	nt
C[C@@H]1CN([C@@H](C)CO)C(=O)c2cccc(NC(=O)c3ccncc3)c2O[C@H]1CN(C)S(C)(=O)=O	8	1
CCC(=O)N1CC2(C1)CN(C(=O)c1ccccn1)[C@H](CO)c1c2c2ccc(OC)cc2n1C	10	9
Cc1noc(C)c1S(=O)(=O)N(C)C[C@@H]1OCc2cnnn2CCCC(=O)N([C@@H](C)CO)C[C@H]1C	8	6
CO[C@H]1CN(C)C(=O)c2cc(NC(=O)c3cnccn3)ccc2OC[C@H](C)NC[C@@H]1C	7	10
O=C(Cc1cccnc1)N1CC(=O)N2[C@H](C1)[C@H](c1ccc(C#CC3CCCC3)cc1)[C@@H]2CO	-29	-30
C[C@H](CO)N1C[C@H](C)[C@H](CN(C)S(C)(=O)=O)Oc2c(NC(=O)Nc3cccc4ccccc34)cccc2C1=O	-23	-17
COc1ccc(C#Cc2ccc([C@H]3[C@H]4CN(Cc5ccccc5F)CCCCN4[C@H]3CO)cc2)cc1	-18	-14
COc1ccc([Si](C)(C)[C@@H]2[C@@H](CCO)O[C@]3(C(=O)N(Cc4ccc(N5CCOC5=O)cc4)c4ccccc43)[C@H]2C)cc1	?	nt
C[C@H]1CN([C@@H](C)CO)C(=O)c2cccc(NC(=O)Nc3ccc4c(c3)OCO4)c2O[C@H]1CN(C)S(=O)(=O)c1ccccc1	4	4
COc1ccccc1-c1cnc2c(c1)C(=O)N([C@H](C)CO)C[C@H](C)[C@@H](CN(C)C(=O)CC1CC1)O2	5	0
CCC(=O)N1CCCCN2[C@@H](CO)[C@@H](c3ccc(-c4ccc(F)cc4)cc3)[C@@H]2C1	-30	-36
C[C@@H]1CN([C@H](C)CO)C(=O)Cc2cc(NC(=O)Cn3cnnn3)ccc2O[C@H]1CN(C)S(=O)(=O)c1cccs1	6	10
COc1ccc(CN(C)C[C@H]2OCCCC[C@H](C)Oc3ccc(NS(=O)(=O)c4cccs4)cc3C(=O)N([C@H](C)CO)C[C@H]2C)cc1	?	nt
COc1ccc(S(=O)(=O)N(C)C[C@H]2OCCCC[C@@H](C)Oc3ccc(NC(=O)CCC(F)(F)F)cc3C(=O)N([C@H](C)CO)C[C@@H]2C)cc1	21	6
C[C@@H](O)C#Cc1ccc([C@H]2[C@H]3CN(S(=O)(=O)c4ccccc4)CCCCN3[C@H]2CO)cc1	5	8
C[C@@H]1CN([C@H](C)CO)C(=O)c2c(c3ccccc3n2C)-c2ccccc2CO[C@@H]1CN(C)C(=O)c1ccc(F)cc1	-10	-7
COc1ccccc1S(=O)(=O)N1CC[C@@H]2[C@@H](CO)Nc3ccc(-c4ccccc4)cc3[C@@H]21	-30	-28
Cc1noc(C)c1NC(=O)Nc1ccc2c(c1)C(=O)N([C@H](C)CO)C[C@H](C)[C@H](CN(C)C(=O)Nc1c(C)noc1C)O2	29	9
COc1ccccc1C#Cc1cnc2c(c1)C(=O)N([C@H](C)CO)C[C@H](C)[C@@H](CN(C)C(=O)CN(C)C)O2	-21	-15

Entries of single compounds, quoted from the list. Screens in order: Vaccinia stage | Vaccinia stage Venus
COc1ccc(CN(C)C[C@H]2OCCCC[C@H](C)Oc3ccc(NS(=O)(=O)c4cccs4)cc3C(=O)N([C@H](C)CO)C[C@H]2C)cc1 as listed: ? | nt
Cc1noc(C)c1NC(=O)Nc1ccc2c(c1)C(=O)N([C@H](C)CO)C[C@H](C)[C@H](CN(C)C(=O)Nc1c(C)noc1C)O2 as listed: 29 | 9
COc1ccc(C#Cc2ccc([C@H]3[C@H]4CN(Cc5ccccc5F)CCCCN4[C@H]3CO)cc2)cc1 as listed: -18 | -14
C[C@@H](O)C#Cc1ccc([C@H]2[C@H]3CN(S(=O)(=O)c4ccccc4)CCCCN3[C@H]2CO)cc1 as listed: 5 | 8
COc1ccc([Si](C)(C)[C@@H]2[C@@H](CCO)O[C@]3(C(=O)N(Cc4ccc(N5CCOC5=O)cc4)c4ccccc43)[C@H]2C)cc1 as listed: ? | nt

The listing picks up; the 4 compounds before the break are reprinted first.
SMILES	Vaccinia stage	Vaccinia stage Venus
C[C@@H]1CN([C@H](C)CO)C(=O)c2c(c3ccccc3n2C)-c2ccccc2CO[C@@H]1CN(C)C(=O)c1ccc(F)cc1	-10	-7
COc1ccccc1S(=O)(=O)N1CC[C@@H]2[C@@H](CO)Nc3ccc(-c4ccccc4)cc3[C@@H]21	-30	-28
Cc1noc(C)c1NC(=O)Nc1ccc2c(c1)C(=O)N([C@H](C)CO)C[C@H](C)[C@H](CN(C)C(=O)Nc1c(C)noc1C)O2	29	9
COc1ccccc1C#Cc1cnc2c(c1)C(=O)N([C@H](C)CO)C[C@H](C)[C@@H](CN(C)C(=O)CN(C)C)O2	-21	-15
C[C@@H]1CN([C@H](C)CO)C(=O)Cc2cc(NC(=O)CCCCCC(=O)Nc3ccccc3N)ccc2O[C@H]1CN(C)Cc1ccc(-c2ccccc2)cc1	-26	-20
CC(C)NC(=O)Nc1ccc2c(c1)C(=O)N([C@H](C)CO)C[C@@H](C)[C@H](CN(C)S(C)(=O)=O)O2	9	7
CCS(=O)(=O)N[C@@H]1C=C[C@@H](CC(=O)NCc2ccc(F)cc2)O[C@H]1CO	6	10
C[C@@H]1CN([C@H](C)CO)C(=O)c2cccc(NS(=O)(=O)c3ccccc3)c2O[C@@H]1CN(C)S(=O)(=O)c1ccccc1	12	9
Cc1cc(C(=O)Nc2cccc3c2O[C@H](CN(C)Cc2ccc(Cl)c(Cl)c2)[C@H](C)CN([C@H](C)CO)C3=O)n(C)n1	-29	-18
CO[C@@H]1CN(C)C(=O)c2ccc(NC(C)=O)cc2OC[C@H](C)NC[C@H]1C	-6	-6
N#C[C@@H]1[C@H](c2ccc(C#Cc3ccc(F)cc3)cc2)[C@@H](CO)N1c1nc(-c2ccccc2)cs1	9	-5
O=C(C[C@@H]1C=C[C@H](NC(=O)c2ccccn2)[C@@H](CO)O1)NCc1cccc(F)c1	-1	-1
C[C@H]1CN([C@@H](C)CO)C(=O)c2cccc(NS(=O)(=O)c3ccc(F)cc3)c2O[C@H]1CN(C)Cc1ccc(-c2ccccc2)cc1	-34	-21
CC(C)C(=O)Nc1ccc2c(c1)C(=O)N(C)[C@H]1CC[C@@H](CC(=O)NCCCN(C)C)O[C@H]1CO2	-1	-10
C[C@@H]1CN([C@@H](C)CO)C(=O)Cc2cc(NC(=O)Nc3ccc(F)cc3)ccc2O[C@H]1CN(C)CC1CCCCC1	?	nt
COc1ccc(NC(=O)Nc2ccc3c(c2)C(=O)N([C@@H](C)CO)C[C@H](C)[C@H](CN(C)C(=O)Nc2ccc4c(c2)OCO4)OCCCC[C@H](C)O3)cc1	6	-1
COc1ccc(S(=O)(=O)Nc2ccc3c(c2)C(=O)N([C@@H](C)CO)C[C@H](C)[C@@H](CN(C)C(=O)Nc2cccc4ccccc24)OCCCC[C@@H](C)O3)cc1	-24	-10
O=C(NCC1CC1)[C@@H]1[C@@H](CO)[C@@H]2Cn3c(ccc(-c4cccnc4)c3=O)[C@@H]2N1Cc1cocn1	4	10
C[C@H]1CN([C@@H](C)CO)S(=O)(=O)c2ccc(C#Cc3ccccn3)cc2O[C@@H]1CN(C)C	3	5
CN1c2ccc(-c3cccc(F)c3)cc2[C@H]2[C@H](CCN2S(=O)(=O)c2cccc(F)c2)[C@H]1CO	?	nt
O=C(Nc1ccccc1F)N1CCCCN2[C@H](C1)[C@H](c1ccc(/C=C/c3ccccc3)cc1)[C@@H]2CO	-25	-38
CC(C)C#Cc1cnc2c(c1)C(=O)N([C@@H](C)CO)C[C@H](C)[C@H](CN(C)C(=O)c1ccccc1F)O2	7	13
COc1ccc2c3c(n(C)c2c1)[C@@H](CO)N(C(=O)CN(C)C)CC31CCN(Cc2cccnc2)CC1	-21	-17
C/C=C/c1ccc([C@@H]2[C@H](CO)N(C(=O)COC)[C@H]2CNC(=O)CC)cc1	-1	7
CCC(=O)N1[C@H](CO)[C@@H](c2ccc(-c3ccc(F)cc3)cc2)C12CN(C(C)=O)C2	-2	-3
COc1ccccc1CNC(=O)C[C@@H]1C[C@H]2c3cc(NC(=O)C4CCC4)ccc3O[C@H]2[C@@H](CO)O1	-2	-8
O=C(C[C@@H]1C=C[C@@H](NC(=O)Nc2ccc(F)cc2)[C@@H](CO)O1)NCc1ccccn1	6	0
O=C(C[C@H]1CC[C@@H]2[C@H](COC[C@H](O)CN2C(=O)c2cccnc2)O1)NC1Cc2ccccc2C1	12	3
Cc1noc(C)c1S(=O)(=O)N(C)C[C@H]1Oc2c(NS(=O)(=O)c3cn(C)cn3)cccc2C(=O)N([C@@H](C)CO)C[C@@H]1C	15	5

The listing continues.
SMILES	Vaccinia stage	Vaccinia stage Venus
COc1ccccc1-c1ccc([C@@H]2[C@@H](CO)N3CCCCN(S(=O)(=O)c4cn(C)cn4)C[C@@H]23)cc1	5	-22
C[C@@H]1CN([C@H](C)CO)C(=O)Cc2cc(NS(C)(=O)=O)ccc2O[C@@H]1CN(C)Cc1ccc(Cl)c(Cl)c1	?	nt
C[C@H]1CN([C@@H](C)CO)C(=O)c2cc(NS(=O)(=O)c3ccc(F)cc3)ccc2O[C@H]1CN(C)C(=O)Nc1ccc(C(F)(F)F)cc1	28	30
C[C@H]1CN([C@@H](C)CO)C(=O)c2cc(NS(=O)(=O)c3ccccc3)ccc2O[C@H]1CN(C)Cc1ccccc1	-7	-11
C[C@H](O)C#Cc1cnc2c(c1)C(=O)N([C@@H](C)CO)C[C@H](C)[C@H](CN(C)Cc1ccccn1)O2	44	24
C[C@@H]1CN([C@@H](C)CO)C(=O)c2cc(-c3cccc(F)c3)cnc2O[C@H]1CN(C)S(=O)(=O)c1cccc(F)c1	-14	-18
Cc1ccc(S(=O)(=O)Nc2ccc3c(c2)CC(=O)N([C@H](C)CO)C[C@H](C)[C@H](CN(C)Cc2ccc4c(c2)OCO4)O3)cc1	-31	-15
COc1ccc(NC(=O)Nc2ccc3c(c2)C(=O)N([C@H](C)CO)C[C@@H](C)[C@@H](CN(C)Cc2ccc4c(c2)OCO4)O3)cc1	-25	-23
Cc1noc(C)c1S(=O)(=O)N(C)C[C@H]1Oc2ccc(NC(=O)Cn3cnnn3)cc2CC(=O)N([C@H](C)CO)C[C@@H]1C	1	-4
CC(C)CC#Cc1cnc2c(c1)C(=O)N([C@H](C)CO)C[C@@H](C)[C@H](CN(C)Cc1ccc(F)cc1)O2	?	nt
CC(C)NC(=O)Nc1cccc2c1O[C@@H](CN(C)C(=O)NC(C)C)[C@H](C)CN([C@H](C)CO)C2=O	5	7
C[C@@H](NC(=O)C[C@@H]1C[C@H]2c3cc(NC(=O)Nc4ccccc4F)ccc3O[C@H]2[C@@H](CO)O1)c1ccccc1	-1	-8
CN1C(=O)c2cc(NC(=O)c3ccccc3)ccc2OC[C@@H]2O[C@H](CC(=O)NC3CCCC3)CC[C@@H]21	-5	-7
C[C@H](CO)N1C[C@H](C)[C@@H](CN(C)Cc2ccc(C(=O)O)cc2)Oc2ncc(C3=CCCCC3)cc2C1=O	31	15
N#Cc1cccc(-c2ccc3c(c2)[C@@H]2[C@@H](CCN2Cc2ccc4c(c2)OCO4)[C@@H](CO)N3)c1	?	nt
CNC[C@H]1Oc2ccc(NC(=O)Nc3ccccc3)cc2CC(=O)N([C@@H](C)CO)C[C@@H]1C	12	5
CCCNC(=O)C[C@@H]1CC[C@H]2[C@H](COc3ccc(NC(=O)c4cc(C)on4)cc3C(=O)N2C)O1	1	4
CCCNC(=O)N1C[C@@H]2[C@H](c3ccccc31)[C@@H](CO)N2Cc1ccc(OC)cc1	3	15
C[C@H]1CN([C@@H](C)CO)C(=O)c2cccc(NS(=O)(=O)c3ccc(F)cc3)c2O[C@@H]1CN(C)C(=O)Nc1cccc2ccccc12	11	18
CN1c2ccc(C#Cc3ccc(F)cc3)cc2[C@@H]2[C@@H](CCN2S(=O)(=O)c2ccccc2F)[C@H]1CO	3	0
C=CCNC(=O)[C@H]1[C@@H]2C(=O)O[C@@H](c3ccccc3)[C@@H](c3ccccc3)N2[C@@H](c2ccc(OCCO)cc2)[C@]12C(=O)N(C(=O)OCCOC)c1ccc(C#Cc3ccc(OC)cc3)cc12	-17	-7
CC(C)NC(=O)N1CC2(C1)[C@H](c1ccccc1)[C@H](CO)N2C(=O)C1CCCC1	8	0
COc1ccc(NC(=O)N(C)C[C@H]2OCCCC[C@H](C)Oc3ccc(NS(=O)(=O)c4ccccc4)cc3C(=O)N([C@@H](C)CO)C[C@@H]2C)cc1	26	21
Cc1cccc(S(=O)(=O)N[C@@H]2CC[C@@H](CCn3cc(-c4ccccn4)nn3)O[C@@H]2CO)c1	-2	-4
C[C@H]1CN([C@@H](C)CO)C(=O)c2cccc(NC(=O)NC3CCCCC3)c2O[C@H]1CN(C)Cc1ccc2c(c1)OCO2	-24	-27
C[C@@H]1CCCCO[C@@H](CN(C)C(=O)c2ccccc2)[C@H](C)CN([C@H](C)CO)C(=O)c2cc(NC(=O)NC3CCCCC3)ccc2O1	-7	-6
O=C(Nc1ccc(F)cc1)N1[C@H](CO)[C@H]2c3ccccc3NC[C@H]21	0	-1
COc1ccc(CNC(=O)C[C@H]2C[C@@H]3c4cc(NC(=O)C5CCC5)ccc4O[C@@H]3[C@H](CO)O2)cc1	-2	-4
